HCMV NEC inh: inhibitors of HCMV UL50-UL53 interaction, biochemical, HTRF; HCMV UL50-UL53 nuclear egress complex (human cytomegalovirus); normalized percent inhibition; inhibition, % (test concentration not listed); 0.15% of 190,000 active; AID 1918969, 2023;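 active = both replicates at 50% or more, plus weaker picks with an unusually low signal ratio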;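 also: stock transfer was 100 nL into about 20 µL; 0% = negative control wells and 100% = wells with untagged competitor protein; inactives centre near -12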
GIV Gai3 FP: inhibitors of GIV peptide binding to Galpha-i3, primary screen, biochemical, fluorescence polarization, FITC-GIV GBA peptide, rat Galphai3 | 0.42% of 210,000 active | 90 min; active compounds read low; scaled: aluminum fluoride 0%, vehicle 100% | Guanine nucleotide-binding protein G(i) subunit alpha-3 (Rattus norvegicus), P08753 | percent of control (FP), % (concentration not given with the values);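 active = replicate mean at 85% of control or lower, very high polarization wells dropped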;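 also: wells of about 15 µL received 100 nL stock; the first replicate is given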
Target sequence (P08753 whole entry, looked up): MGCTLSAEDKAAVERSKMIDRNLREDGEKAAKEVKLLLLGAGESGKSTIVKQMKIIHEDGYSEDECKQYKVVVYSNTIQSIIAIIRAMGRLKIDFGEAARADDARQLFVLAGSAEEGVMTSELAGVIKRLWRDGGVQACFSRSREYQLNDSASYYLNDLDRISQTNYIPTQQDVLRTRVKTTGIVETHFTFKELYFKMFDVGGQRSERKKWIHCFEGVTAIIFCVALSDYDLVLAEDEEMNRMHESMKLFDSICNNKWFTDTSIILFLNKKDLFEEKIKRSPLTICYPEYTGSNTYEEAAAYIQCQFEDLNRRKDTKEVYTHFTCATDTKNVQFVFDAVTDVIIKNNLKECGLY
Sa growth inh: S. aureus growth inhibition at 42 and 30 °C, primary screen, LtaS inhibitor project, RN4220, two temperatures; OD600, 20 h, 42 °C; active compounds read low; relative growth, % (test concentration not listed); 0.53% of 170,000 active; AID 720641, 2013;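 active = growth at 42 °C up to 50% and 20 or more points under that at 30 °C, or under 10% at both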;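 also: 300 nL library stock went into each well; scaled to the means of positive and negative controls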
Sa growth inh second temp: also measured in Sa growth inh; calls as there; relative growth, %; measured here: growth at 30 °C;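 optical density after 20 h as mean of two plates; 100% = untreated growth and lower means inhibition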
The depositor's hits bear a star; . = not tested or not shown; & = joins results of further samples.

SMILES	HCMV NEC inh	Sa growth inh	GIV Gai3 FP	Sa growth inh second temp
Cc1ccc(Cn2nc(C)ccc2=O)cc1	-32	91	103	87
CCC(C)N(C)C1CCN(C(=S)Nc2cccc(Cl)c2)CC1 (configuration not stated)	.	121	104	91
COc1ccc(-n2nnnc2SCC(=O)N2CC(=O)Nc3ccccc32)cc1	-9	100	.	92
COc1ccc(CNC(=O)c2cc(S(=O)(=O)N3CCCC3)c[nH]2)cc1	.	102	104	85
COc1ccc2oc(=O)c(C(=O)N(C)C)cc2c1	-14	98	.	91
Cc1sc(NC(=O)c2cccnc2)nc1-c1ccc2c(c1)N(C)C(=O)CO2	-9	.	94	.
COc1ccc(-n2cc(C(=O)Nc3cc(C)ccc3OC)nn2)cc1	-12	107	110	90
CCCN1CCN(C(=O)C(NC(=O)c2ccco2)C(C)C)CC1 (configuration not stated)	-25	67	.	75
C=Cc1c(S(C)(=O)=O)sc(C(=O)NC)c1C	-11	84	102	87
Cc1c(CC(=O)NCCc2ccccc2F)c(=O)oc2cc(O)c(Cl)cc12	-51	97	97	76
CCN(CC)S(=O)(=O)c1ccc2c(c1)CCCN2C(=O)OC	-3	103	101	83
CCC(C)(C)n1nnnc1C(c1ccc(Cl)cc1)N1CCN(c2nc3ccccc3s2)CC1 (configuration not stated)	-20	110	101	103
CCc1ccc2c(c1)c1nnc(SCC(=O)c3ccc(OC)cc3)nc1n2C	-15	105	105	61
CCCSCCCNC(=O)C1CCCN(c2nn3cc(-c4ccc(OC)cc4)nc3s2)C1 (configuration not stated)	.	126	97	82
O=C(Nc1ccccc1)c1ccco1	-17	92	103	94

Following part
SMILES	HCMV NEC inh	Sa growth inh	GIV Gai3 FP	Sa growth inh second temp
COc1ccc(SCc2nsc(Sc3ccc(OC)cc3)n2)cc1	-15	100	102	92
Cc1cccc(C)c1NC(=S)N1CCCC1=O	-16	99	104	88
C=CCN1C(=O)NC(=O)/C(=C/c2ccccc2OCc2ccc(F)cc2)C1=O	0	95	.	79
CC(=O)N1CCN(c2ccccc2NC(=S)NC(=O)CC(C)C)CC1	27	99	105	102
COc1ccc(C(=O)Nc2cc3c(cc2Sc2ccccc2)n(C)c(=O)n3C)cc1Br	-32	.	105	.
CC(C(=O)NCCCN1CCC(N2CCCCC2)CC1)N1C(=O)CCCc2ccccc21 (configuration not stated)	-10	.	106	.
COc1ccc(C2CC(=O)C3=C(C2)Nc2ccccc2NC3c2ccccc2C(F)(F)F)cc1OC (configuration not stated)	-36	.	103	.
CCS(=O)(=O)N1CCc2cc(C(=O)NCc3ccc(C)cc3)ccc21	-26	112	102	91
CCOc1ccc(C(CC(=O)Nc2cc(C)c(Cl)cc2OC)N2Cc3ccccc3C2=O)cc1OC (configuration not stated)	.	124	101	93
COc1ccc(C2NC(=O)NC(C)=C2C(=O)c2ccccc2)cc1OC (configuration not stated)	.	93	99	90
O=C(c1ccc2c(c1)N(Cc1ccccc1)C(=O)c1ccccc1S2=O)N1CCN(C(=O)c2ccco2)CC1 (configuration not stated)	3	108	105	85
CCOC(=O)c1c(N)sc(=S)c2c1CCC2	.	116	101	73
O=C(CSCc1cccc2ccccc12)Nc1ccc(C(F)(F)F)cc1	-28	81	101	87
C/S(=N\S(=O)(=O)c1ccc(Cl)cc1)c1ccccc1 (configuration not stated)	16	106	108	99
O=C(CSc1nc(N2CCOCC2)nc(N2CCOCC2)n1)c1ccccc1	0	108	106	108

2 successive compounds out of the list so far, for reference:
SMILES	HCMV NEC inh	Sa growth inh	GIV Gai3 FP	Sa growth inh second temp
COc1ccc(C(=O)Nc2cc3c(cc2Sc2ccccc2)n(C)c(=O)n3C)cc1Br	-32	.	105	.
CC(C(=O)NCCCN1CCC(N2CCCCC2)CC1)N1C(=O)CCCc2ccccc21 (configuration not stated)	-10	.	106	.

5 of the entries above in order of their number in Sa growth inh second temp, descending.
Compound | Sa growth inh second temp
O=C(CSc1nc(N2CCOCC2)nc(N2CCOCC2)n1)c1ccccc1 | 108
CC(=O)N1CCN(c2ccccc2NC(=S)NC(=O)CC(C)C)CC1 | 102
COc1ccc(SCc2nsc(Sc3ccc(OC)cc3)n2)cc1 | 92
CCS(=O)(=O)N1CCc2cc(C(=O)NCc3ccc(C)cc3)ccc21 | 91
CCOC(=O)c1c(N)sc(=S)c2c1CCC2 | 73

Following part.
SMILES	HCMV NEC inh	Sa growth inh	GIV Gai3 FP	Sa growth inh second temp
CC(=O)OC(C(=O)NCc1ccc2c(c1)OCO2)c1ccccc1Cl (configuration not stated)	-8	104	102	85
Cc1nn(C)c(C)c1CNC(=O)NCc1ccccc1	-27	.	100	.
COc1ccc(-c2cc(C(F)(F)F)nc(SCC(=O)N(C)Cc3cn(C)nc3C)n2)cc1OC	.	95	106	92
COc1ccccc1N1CCN(C(=O)c2sc3ncnc(N4CCN(c5ccccn5)CC4)c3c2C)CC1	-3	.	106	.
COc1ccc(C(=O)NCC(c2ccc3c(c2)OCO3)N2CCN(c3ccc(F)cc3)CC2)cc1 (configuration not stated)	.	135	99	86
CCOC(=O)c1cc2cc(Cl)ccc2o1	.	105	95	80
CCOc1ccc2nc(N3CCC(C(=O)NCC4CCCO4)CC3)sc2c1 (configuration not stated)	0	95	103	83
CCOC(=O)N1CCC(NC(=O)c2ccc(Cn3c(=O)[nH]c4cc(OCC)c(OCC)cc4c3=O)cc2)CC1	-20	88	103	85
COc1cccc(NS(=O)(=O)c2ccc3c(c2)CC(C)N3C(=O)C2CC2)c1 (configuration not stated)	-30	82	103	83
Cc1ccc2oc(N3CCN(C(=O)Cc4ccccc4)CC3)nc2n1	-14	.	103	.
COc1cccc(C(Nc2nc(C)cc(C)n2)c2cc(C)sc2NC(=O)c2ccccc2)c1 (configuration not stated)	-17	.	109	.
CC(CCc1ccccc1)NC(=O)Cn1c(=O)nc(-c2ccccc2)c2ccccc21 (configuration not stated)	.	106	109	92
N#Cc1c(N(C(=O)/C=C/c2ccco2)C(=O)/C=C/c2ccco2)oc(-c2ccco2)c1-c1ccco1	13	57	.	69
CCOC(=O)c1ccc(N2C(=O)Cn3cccc3C2C(=O)NC2CCC(C)CC2)cc1 (configuration not stated)	-4	.	107	.
CCOC(=O)COc1ccccc1C(=O)c1ccn2nc(-c3ccc(F)cc3)cc2n1	-18	.	94	.

The closing 4 records of the part before are carried over, then new ones follow.
SMILES	HCMV NEC inh	Sa growth inh	GIV Gai3 FP	Sa growth inh second temp
CC(CCc1ccccc1)NC(=O)Cn1c(=O)nc(-c2ccccc2)c2ccccc21 (configuration not stated)	.	106	109	92
N#Cc1c(N(C(=O)/C=C/c2ccco2)C(=O)/C=C/c2ccco2)oc(-c2ccco2)c1-c1ccco1	13	57	.	69
CCOC(=O)c1ccc(N2C(=O)Cn3cccc3C2C(=O)NC2CCC(C)CC2)cc1 (configuration not stated)	-4	.	107	.
CCOC(=O)COc1ccccc1C(=O)c1ccn2nc(-c3ccc(F)cc3)cc2n1	-18	.	94	.
COC(=O)C1=C(C)N(c2ccccc2)/C(=C/c2cccc3ccccc23)C1=O	-2	47	.	14
COc1ccc(S(=O)(=O)NCc2ccco2)cc1OC1CCCC1	4	105	104	93
Cc1ccc(Cl)cc1N1CCN(S(=O)(=O)c2cc3[nH]c(=O)c(=O)[nH]c3cc2C)CC1	.	105	104	82
O=c1c(Oc2ccccc2)c(C(F)(F)F)oc2c(O)c(O)ccc12	-23	53	102	17
CCCN(CCC)C(=O)Cn1c(SCc2cccc(Cl)c2)nc2ccncc21	.	123	105	94
COc1ccc(N2CCN(Cc3nc4c(c(=O)[nH]c(=O)n4C)n3CC(C)C)CC2)cc1	21	96	109	107
Cc1ccc(C)c(NC(=O)CSc2nnc3cc(C)c4ccccc4n23)c1	-13	.	103	.
COc1cccc(NC(=O)c2ccnc(N3CCC(C(=O)NCc4ccccc4OC)CC3)c2)c1	-25	.	104	.
CCc1ccc(NC(=O)c2ccc(F)c(S(=O)(=O)NCC3COc4ccccc4O3)c2)cc1 (configuration not stated)	.	105	98	88
Cc1cccc(NC(=O)CCc2nc(-c3cc4ccccc4[nH]c3=O)no2)n1	-17	.	109	.
COc1ccc(CCn2cc3c(c2-c2ccc(Br)cc2)c(=O)n(C)c(=O)n3C)cc1OC	-26	92	98	84
O=C(Cc1ccccc1)Nc1ccc(Cn2cnc(-c3nc(-c4ccc(Cl)cc4)no3)c2)cc1	-28	.	102	.
COc1ccccc1N1CCN(C(=O)c2cccc(Oc3ccccc3)c2)CC1	-36	75	.	56
O=C(C1CCCN(c2nnc(-n3cccc3)s2)C1)N1CCN(c2ccccn2)CC1 (configuration not stated)	-5	.	97	.
Cc1ccc(NC(=O)c2ccc(S(=O)(=O)c3ccc(Cl)cc3)nc2)cc1	-13	.	97	.

Following part:
SMILES	HCMV NEC inh	Sa growth inh	GIV Gai3 FP	Sa growth inh second temp
Cc1ccc2nc(SCC(=O)N3CCc4ccccc43)nc(=O)n2c1	-32	84	98	80
COc1ccc(C2=C3NN=C(N)N3NN2)cc1	-65	86	.	103
Cc1ccc(N2C(=O)CN(CCc3ccc(S(N)(=O)=O)cc3)[C@H]3CS(=O)(=O)C[C@H]32)cc1C	-2	.	115	.
CCC(C)NC(=O)c1cc(Sc2cccc(Cl)c2)nc2ccccc12 (configuration not stated)	.	123	107	100
N#Cc1ccccc1OCC(=O)N1CCN(c2ccccc2F)CC1	5	93	108	79
CC(C)Cn1c(=O)c2sccc2n2c(CCCC(=O)NCCc3ccccc3)nnc12	.	110	99	93
COc1ccc(Nc2ccc(C(=O)N3CCc4ccccc43)nn2)cc1	1	.	102	.
CCOC(=O)c1ccccc1NC(=O)c1ccncc1	1	105	99	68
O=C(c1c[nH]c2ccccc2c1=O)N(Cc1ccccc1)Cc1ccccc1	-10	91	.	91
COC(=O)c1sc(C(=O)OC)c(O)c1O	-47	65	96	39
O=C(O)CCC(=O)Nc1ccc(OC(F)(F)F)cc1	-6	105	102	103
CCOC(=O)c1c(-c2ccc(OC)cc2)oc2ccc(OCc3ccccc3C)cc12	-17	118	101	84
O=C(O)CCn1nc(-c2cccs2)oc1=O	-36	75	.	91
CCc1ccc(C2c3c(-c4ccccc4O)n[nH]c3C(=O)N2CCO)cc1 (configuration not stated)	-17	87	104	81
C1=C(c2cc3ccccc3o2)SC2=NCCN12	-52	104	.	93

Other results:
SMILES	HCMV NEC inh	Sa growth inh	GIV Gai3 FP	Sa growth inh second temp
Cc1ccc(NC(=O)c2cc(C)on2)cc1	-15&-20	95	99&101	75
Cc1cc2cc(CNC(=O)COc3ccc4ccccc4c3)ccc2n1C	.	105	100	84
CCCN1C(=N)C(c2nc3ccccc3s2)=C(O)C1c1ccccc1 (configuration not stated)	-13	85	.	102
CC1Sc2cc(S(=O)(=O)NCc3ccccc3)ccc2NC1=O (configuration not stated)	.	97	100	72
Cc1ccc(-c2ccnc3c(C(=O)NCc4ccc5c(c4)OCO5)cnn23)cc1C	-8	.	105	.
CCC(SC1=Nc2ccccc2C2=NC(C)C(=O)N12)C(=O)Nc1ccccc1 (configuration not stated)	-26	.	109	.
CC(C)Nc1nc(Cl)nc(NNC(=O)C(C)Oc2ccccc2)n1 (configuration not stated)	18	86	101	109
CCOC(=O)C1C(=O)NC(SCC(=O)Nc2ccc(Br)cc2)=C(C#N)C1c1ccccc1OCC (configuration not stated)	-25	.	102	.
Cc1cc(=O)[nH]c(SCC(=O)N(c2ccccc2)c2ccccc2)n1	-5	103	100	112
CCOc1ccc(Nc2ncnc3c2cnn3-c2ccccc2)cc1	-9	95	107	94
CCCC(=O)NCC(c1ccc2c(c1)OCO2)N1CCN(c2ccccc2)CC1 (configuration not stated)	.	122	103	87
CCSc1cc(C(F)(F)F)c(C(=O)Nc2ccc(Cl)cc2)cn1	-9	114	107	94
O=c1[nH]cc(-c2ccc(Br)cc2)n1Cc1ccccc1	11	90	.	96
CCOc1cccc2sc(NC(=O)c3ccc(S(=O)(=O)N4CCCCC4)cc3)nc12	.	75	102	89
O=c1[nH]c2ccccc2n1CCCCl	-12	86	98	90

(continued)
SMILES	HCMV NEC inh	Sa growth inh	GIV Gai3 FP	Sa growth inh second temp
O=C(O)/C=C/c1csc(-c2ccc(F)cc2)n1	-76	76	.	91
CCCCn1c(SCC(=O)Nc2ccc(F)cc2)nc2c(sc3ccccc32)c1=O	.	116	105	76
Cc1cc(C(=O)N2CCOCC2)n(-c2ccccc2)n1	1	94	98	89
COc1ccc(OC)c(NC(=O)c2cccn2-c2cccnc2)c1	-35	.	107	.
CCC(C)(C)NS(=O)(=O)Cc1ccccc1	2	100	104	101
CC(C)c1ccc(N/C=C2/CCCCC2=O)cc1	-12	128	111	100
CCC(=O)Nn1cnc2c(cnn2-c2ccccc2)c1=O	-4	97	102	86
CCCN(CCC)C(=O)c1noc2c1CC(C)CC2 (configuration not stated)	-22	88	101	92
CCNC(=O)CCSc1nc(C)cc(C)n1	-12	96	105	77
O=C(COCc1cc(-c2ccc3c(c2)OCO3)on1)NCc1ccc(F)cc1	.	113	103	91
Cc1noc(C)c1COC(=O)CCC(=O)c1ccc(F)cc1	-5	95	.	87
Oc1c(C(c2ccccc2F)N2CCCC2)sc2nc(-c3ccco3)nn12 (configuration not stated)	.	142	95	90
CCC(C)c1ccc(NC(=S)N2CCN(S(C)(=O)=O)CC2)cc1 (configuration not stated)	-13	98	106	94
CC(C)=C1C2C=CC1C1C(=O)N(c3ccccc3)C(=O)C21 (configuration not stated)	-9	105	100	74

Screening results as filed in PubChem.
